Screening results (PubChem)
PrP 5UTR inh = inhibition of PrP 5' UTR reporter expression. cell-based PrP 5' UTR mRNA reporter, plate reader. inhibition, % (no concentration beside the values). actives 0.35% (n = 340,000). AID 488862;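 active means every replicate at 50% or more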;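 further: 0 = median of the neutral control wells; tested in H4 reporter cells; numbers are from one replicate; inactives centre near -14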
Mtb hypoxia rep = inhibitors of hypoxia-regulated fluorescent reporter in Mycobacterium tuberculosis; fluorescence inhibition, % (concentration not given with the values); M. tuberculosis hypoxia-regulated fluorescent reporter, fluorescence; actives 0.1% (n = 300,000);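 active means 35 to 45% if threefold the growth effect, above 45% if 1.5-fold the growth effect; inactive means the rest, general growth blockers included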;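 further: wells of about 50 µL received 100 nL stock; 0% = vehicle wells and 100% = reference inhibitor wells; whole bacteria with a GFP reporter of the hypoxia response; strong numbers were not always called active; many hits fall short of the cut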
Sa ugtP lethal = growth inhibition of S. aureus ugtP deletion strain; S. aureus RN4220 ugtP deletion, OD600 growth, 16 h; some inactives read as strong as hits; growth inhibition, % (concentration not given with the values); actives 0.54% (n = 330,000); AID 1259309;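 active means z-score under -3 and OD600 up to 0.15 on both plates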;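 further: plate controls were untreated wells for no effect and antibiotic for full effect; wells of about 80 µL received 100 nL stock; the first replicate is given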
Sa RN4220 lethal = kills Staphylococcus aureus RN4220. inhibition, % (no concentration beside the values). S. aureus RN4220 growth, OD600, 16 h. actives 0.33% (n = 330,000). AID 1259311;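 active means z-score of -3 or lower and OD600 up to 0.18 on both plates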;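 further: plate controls were untreated cells for no effect and reference antibiotic for full effect; stock transfer was 100 nL into about 80 µL; one replicate is shown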
Autofluor counter = flagged as autofluorescent in microsphere protease counterscreen. compound autofluorescence counterscreen, microsphere flow cytometry; stronger effect = higher value. fluorescence intensity (no concentration beside the values). actives 3.1% (n = 360,000). AID 624483;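 active means at least 3 SD above the mean of all compounds, about 16000 in these data; inconclusive means too few beads counted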;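 further: 100 nL of 1 mM stock went into each well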
BJeLR lethal = kills HRASV12-expressing BJeLR cells; inhibition, % (concentration not given with the values); AID 1554; actives 0.17% (n = 300,000); BJeLR (HRASV12) viability, CellTiter-Glo ATP luminescence, 48 h; reference of the scale not given here;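 active means replicate mean above 50%; inconclusive means above 50% but judged a plate artefact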;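 further: 50 nL library stock added to about 25 µL; numbers are from one replicate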
Mtb hypoxia rep growth = also measured in Mtb hypoxia rep; calls as there; growth inhibition, %; measured here: M. tuberculosis growth (absorbance);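 0% = vehicle and 100% = reference antibiotic; read after six days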
Starred values were filed as active, the others as inactive; ? = inconclusive; . = no result given; & = joins results of further samples.

SMILES	PrP 5UTR inh	Mtb hypoxia rep	Mtb hypoxia rep growth	Sa ugtP lethal	Sa RN4220 lethal	Autofluor counter	BJeLR lethal
O=C(NNC(=O)c1n[nH]c2ccccc12)c1ccccc1	-21	1	-12	8	1.3	6854	.
O=C(COC(=O)/C=C/c1ccccc1)Nc1ccc2c(c1)OCCO2	12	-4	-2	5	4.6	2997	.
CC(NC(=O)c1ccc(Cn2cc([N+](=O)[O-])cn2)cc1)c1ccccc1 (stereo unspecified)	-19	-11	2	-3	-0.6	2092	6
COc1cccc(/C=N/n2c(C3CCCCC3)n[nH]c2=S)c1OC	-15	.	.	.	.	3999	3
CCOc1cccc(-c2nn(-c3ccccc3)cc2/C=C(/C#N)C(=O)NCCCn2ccnc2)c1	5	18	17	-3	-0.5	2568	-5
O=C(CCc1nnc(-c2ccccc2)o1)NCc1c(F)cccc1F	-27	11	4	6	3.0	3376	6
COCC(C)n1c(SCc2ccc(C(=O)OC)cc2)nc2ccccc2c1=O (stereo unspecified)	-20	12	3	20	3.3	5515	-8
CONc1nc(NC(C)(C)C)nc(OCC#N)n1	-17	8	3	-2	0.7	2115	-6
CCCCC12CN3CC(C)(CN(C1)C31C(=O)N(C)c3ccc(C)cc31)C2=O (stereo unspecified)	-20	1	1	3	1.9	11348	-1
O=C(C1=C[C@@H](c2ccccc2)C[C@@H](OCc2ccc(CO)cc2)O1)N1CCOCC1	-12	1	-6	8	1.1	3436	6
CCOC(=O)N1CCN(C(=O)COc2ccc(Br)cc2)CC1	-22	14	7	-2	-14	2431	0
C/C(C=Nn1cnnc1)=C/c1ccccc1	.	9	-1	-4	5.2	.	.
COc1ccc(-c2oc(NC(C)=O)c(C#N)c2-c2ccc(OC)cc2)cc1	-23	-5	-6	41	-4.8	3556	1
COc1cc(NC(=O)CSc2nc3[nH]c(=O)cc(O)c3s2)cc(OC)c1OC	-3	-17	-8	1	3.1	?	.
CCCCOc1ccc(C(=O)N/C(=C/C=C/c2ccccc2)C(=O)NCCCO)cc1	-12	6	-16	10	1.4	2679	.
COc1ncc(C2=CC(=O)CC(C)(C)C2)cn1	-13	5	4	4	5.7	4251	.
COc1cc(NC(=O)c2ccc3c(c2)C(=O)N(CCC(C)C)C3=O)c(C(=O)O)cc1OC	-11	-3	-4	12	11	3655	-7
CN(C)S(=O)(=O)c1cccc(NC(=O)c2cccc(S(=O)(=O)N3CCc4ccccc43)c2)c1	-26	0	-1	-2	-3.9	6202	.
CC(CC1(O)C(=NO)CCc2nonc21)=NO (stereo unspecified)	.	-3	4	3	3.7	.	.
CCN(CC(=O)Nc1c(F)cccc1F)C(=O)c1ccc(N2CCCCC2)c([N+](=O)[O-])c1	-30	16	9	3	1.3	5243	4
CC(C)(O)[C@@H]1[C@@H]2C[C@@]3(CC[C@]4(C)C(CCC5[C@@]6(C)CC[C@H](O)C(C)(C)C6CC[C@]54C)[C@@H]13)C(=O)O2 (stereo partly specified)	.	.	.	2	9.5	3878	-4
O=C(CCl)Nc1ccc(S(=O)(=O)NC2=NCCCCC2)cc1	-8	25	15	6	5.2	3766	.
CCN1CCN(Cc2cc(=O)oc3ccc(Cl)cc23)CC1	-23	6	4	-5	-2.9	9677	6
COc1ccc(NC(=O)CCCNC(=O)Cn2cnc3sc4c(c3c2=O)CCCC4)c(OC)c1	-3	-9	6	-1	0.7	3784	2
O=C(O)/C=C/C(=O)Nc1ccc2c(c1)NC(=O)CO2	-22	6	9	3	0.8	4327	-5
Cc1ccc(NC(=O)CCC(=O)c2cccs2)c(O)c1	-24	5	10	11	3.2	5401	7
Cc1ccc(-c2cn(-c3ccccc3)c3[n+]2CCCS3)cc1	-16&-12	15	19	6&0	2.2&-0.2	2101&2091	19&8
CCOC(=O)C1CCN(c2ncnc3c2cnn3-c2ccc(OC)cc2)CC1	4	-3	5	5	3.8	?	.
CN1CCN(C(=O)CCN2C(=O)/C(=C\c3ccc(Cl)cc3)SC2=S)CC1	0	19	16	14	3.0	5281	-4
Cc1cc(/C=C(\C#N)C(N)=O)c(C)n1-c1ccc(N2CCOCC2)c([N+](=O)[O-])c1	-8	-1	9	3	0.6	2626	-10
Cn1nnnc1SCC(=O)Nc1cc(C(F)(F)F)ccc1N1CCOCC1	-29	7	13	4	3.1	2565	-9
COc1ccc(C(=O)NC(C(=O)OCC(=O)Nc2sccc2C(N)=O)C(C)C)cc1 (stereo unspecified)	-4	-5	-4	-3	-0.7	6179	.
CCC(=O)NC1=C(NC(C)c2ccccc2)C(=O)c2ccccc2C1=O (stereo unspecified)	-14	.	.	10	22	3823	5
CS(=O)(=O)N(CC(=O)N1CCCC1)Cc1ccc(F)cc1	-2	3	-3	7	3.5	4009	-4
CCOC(=O)c1ccccc1C(=O)N1CCOCCOCCOCC1	-16	-4	9	-3	1.9	1975	1
Cc1ccc2c(c1)N(CC(=O)N1CCCC1)C(=O)c1cccnc1O2	-9	11	-2	10	3.8	5345	-14
Cc1cc2oc(=O)cc(CN3CCOCC3)c2c(C)c1Cl	-23	10	5	10	5.6	3884	2
CC(C)(C)c1nnc(NC(=O)c2cccnc2)s1	-1	13	6	-1	4.7	2446	-1
Cc1cccc(NC(=O)N2CCc3ccccc3C2)c1C	-13	-4	6	3	0.6	?	-9
O=C(NC1CCCCC1)N1CCN(c2ccc(Cl)cc2)CC1	-28	4	-1	-3	-5.0	6168	6
Cc1nn(C(C)C)c(C)c1[C@@H]1C[C@H]2CN(Cc3cccc(Cl)c3)C(=O)[C@]23CCCN13	-15	10	6	15	4.7	9306	2
Cc1nc(NS(=O)(=O)c2ccccc2)sc1C(=O)N/N=C/c1ccccc1	-19	.	.	.	.	4147	1
O=C(O)c1ccc(N=C2NC(=O)C(CO)(CO)S2)cc1	-39	-7	1	3	4.6	3899	-15
Cn1c(Cn2c(=O)sc3ccccc32)nnc1SCC(=O)Nc1ccc(F)cc1	-31	.	.	-7	0.2	5938	-7
CCn1c(Cn2nnc(-c3ccccc3)n2)nnc1SCC(=O)Nc1cccc(C(C)=O)c1	-16	-4	0	1	6.1	7838	-3
COc1cccc(C2CC(c3c(Cl)cccc3Cl)n3nc(N)nc3N2)c1 (stereo unspecified)	-16	.	.	9	-1.3	5900	-1
COc1ccc(C(C)=NNC(=O)Cc2ccc(Cl)cc2)cc1	.	10	-3	4	5.3	.	.
Cc1ccc(-c2cn3nc(C)c(C)nc3n2)cc1	67*	.	.	.	.	3973	7
O=C(COc1ccc(S(=O)(=O)N2CCCCC2)cc1)N1CCCC1	-12	1	8	1	1.8	3865	0
O=C(C1COc2ccccc2O1)N1CCc2ccccc21 (stereo unspecified)	-70	8	6	4	10	11206	0
S=c1ncc2[nH]c(=S)[nH]c2[nH]1	7	20	0	6	3.2	2772	.
Cc1cccc(N2CCN(C(=O)c3ccc(NC(=O)C4CCCO4)cc3)CC2C)c1 (stereo unspecified)	-8	8	10	4	4.2	4273	4
OCCN1CCN(CCCc2c3c(cc4c2CCC4)CCC3)CC1	-15	7	4	-3	6.6	11503	6
Cc1cc(C)n(/C(=C/N(C)C)C(=O)c2ccccc2)n1	28	5	11	5	11	4440	1
Fc1ccccc1-c1nc(NCCCN2CCOCC2)c2ccccc2n1	-6	6	6	4	4.8	1995	7
CC(=NNC(N)=O)c1ccc(Cl)s1	.	21	6	1	0.9	.	.
Cc1ccccc1NS(=O)(=O)c1cccc2nonc12	-1	7	13	0	5.1	5867	10
COc1ccc2c(c1)C1=NN(/C(C)=C/C(C)=O)C(c3cccc(F)c3)C1CC2 (stereo unspecified)	-18	.	.	.	.	3167	-4
CCOC(=O)C(NC=O)(NC(C)(C)C)C(=O)OCC	-28	.	.	0	-1.1	4059	-10
Nc1ncnc2sc3c(c12)CCNC3	-12	1	-11	5	1.8	3156	2

Full records, quoted from the list. Values in the order: PrP 5UTR inh	Mtb hypoxia rep	Mtb hypoxia rep growth	Sa ugtP lethal	Sa RN4220 lethal	Autofluor counter	BJeLR lethal
Record of Cc1ccccc1NS(=O)(=O)c1cccc2nonc12 = -1	7	13	0	5.1	5867	10
Record of O=C(COc1ccc(S(=O)(=O)N2CCCCC2)cc1)N1CCCC1 = -12	1	8	1	1.8	3865	0
Record of Nc1ncnc2sc3c(c12)CCNC3 = -12	1	-11	5	1.8	3156	2
Record of Cc1cc(C)n(/C(=C/N(C)C)C(=O)c2ccccc2)n1 = 28	5	11	5	11	4440	1
Record of Cc1cccc(N2CCN(C(=O)c3ccc(NC(=O)C4CCCO4)cc3)CC2C)c1 (stereo unspecified) = -8	8	10	4	4.2	4273	4

(next part)
SMILES	PrP 5UTR inh	Mtb hypoxia rep	Mtb hypoxia rep growth	Sa ugtP lethal	Sa RN4220 lethal	Autofluor counter	BJeLR lethal
N#CC(=C(O)CN1CCOCC1)c1nc(-c2ccccc2)cs1	.	1	3	0	5.8	.	.
Cc1ccc(C(=O)Nc2cccnc2)cc1S(=O)(=O)N1CCCC1	-5	8	13	2	2.4	6384	-1
Cc1nonc1NC(=O)CSc1ccc(-c2ccccc2)nn1	-12	1	8	1	5.3	10997	9
O=C(COC(=O)CCc1ccccc1)Nc1cc(S(=O)(=O)N2CCOCC2)ccc1N1CCCC1	-7	-9	5	-6	4.6	4499	10
COc1ccc(CCNC(=O)Cn2c(=O)oc3ccccc32)cc1OC	-13	.	.	1	1.5	3727	2
CCCCSC1=N/C(=C/c2ccsc2)C(=O)N1c1ccccc1	-12	8	8	0	-3.3	8880	-4
Cc1ccnc(NS(=O)(=O)c2ccc(NC(=O)/C=C/c3ccccc3)cc2)n1	-24	19	-2	2	3.1	3855	10
O=C(/C=C/c1ccco1)N1CCN(S(=O)(=O)c2ccc(F)c(F)c2F)CC1	-9	-3	-12	3	2.3	3246	0
CCCN(C(=O)CSc1nnc2ccccn12)C1CCS(=O)(=O)C1 (stereo unspecified)	-14	4	2	10	3.5	8529	.
Cc1ccc(S(=O)(=O)N2CN(CC3CCCO3)c3nc4ccccc4nc32)c(C)c1 (stereo unspecified)	-5	-3	2	9	4.6	6684	-8
COc1ccccc1C=CC(=O)NCC(=O)NN=Cc1ccc2c(c1)OCO2	.	3	6	-6	0.5	.	.
C=CCC1c2cccc(C(=O)O)c2C(=O)N1c1cccc(C)c1 (stereo unspecified)	-28	2	5	5	8.8	7844	-13
COc1ccccc1NC(=O)CN(Cc1ccco1)C(=O)c1cccs1	-26	16	5	-11	7.8	23213*	-4
CCN(C(=O)COc1cccc2cccnc12)C1CCS(=O)(=O)C1 (stereo unspecified)	-11	6	4	12	6.0	4129	6
CCC/C(=N/NC(=O)c1ccccc1Cl)c1ccccc1	-26	.	.	.	.	4102	0
CCN(CC)CCn1c(=O)n(-c2ccc(Cl)cc2)c(=O)c2c3c(sc21)CN(C)CC3	-8	10	7	-1	1.3	5059	0
CNc1nc(Cl)nc2ncn(C)c12	-14	-3	2	2	1.8	3082	.
CCc1ccccc1NC(=O)CSc1nc2c(c(-c3ccco3)c1C#N)CCCC2	-22	8	3	5	6.8	7962	0
O=C1C(Cc2ccccc2)NCC=CCC(c2ccco2)N1Cc1ccccc1 (stereo unspecified)	.	9&8	9&9	15&-19	16&18	.	.
Cc1cccc(NC(=O)CN2CCN(C(=O)c3ccc(-c4nc5ccccc5s4)o3)CC2)c1C	-55	8	-4	-11	4.8	4947	.
O=C(CON=Cc1ccc(OC(F)F)cc1)N1CCc2ccccc21	.	-8	3	0	-2.6	.	.
CCc1ccc(OCCn2cccn2)cc1	-35	17	10	19	6.3	2438	-10
CC(=NNC(=O)CSc1nc(C)cc(C)n1)c1ccc([N+](=O)[O-])cc1	.	3	4	3	0.0	.	.
O=C(Cn1c(=O)oc2ccccc21)Nc1ccc(Cl)cc1	-11	8	27	5	1.3	4100	-9
CCc1ccc(C(=O)CCC2CCCCC2=O)cc1 (stereo unspecified)	-61	9	12	7	4.0	4086	-2
CC(=O)Nc1ccc(NC(=O)CCCCCn2nnc3ccccc3c2=O)cc1	-2	2	1	-1	-0.7	3142	-2

Rows are unselected; about 4% have a hit in one of these screens.
